Source: PubChem BioAssay
RanGTP-Impb inh = inhibitors of RanGTP-importin-beta interaction, primary screen, biochemical, FRET, CFP-Ran, YFP-importin-beta, homogeneous; AID 2216; actives 1.1% (n = 300,000); inhibition, % (concentration not given with the values); cell-free CFP-Ran/YFP-importin-beta FRET ratio;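 active = most replicates above 15%; inconclusive = exactly half above 15%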;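 note: 0% = DMSO wells and 100% = Ran loaded with GDP instead of GTP; wells of about 40 µL received 100 nL stock; the first replicate is given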
HNF4A DNA FP = change in binding of human HNF4 alpha to DNA. HNF4a-FITC DNA binding, fluorescence polarization, 1 h. activity change, % at 10 µM. actives 0.3% (n = 360,000). AID 1224865; in the data active = activity change above about 30%, passing the limit was not always enough;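 note: controls were the assay level and a saturating level of protein; the project sought stronger binding though the title names inhibitors; some compounds called inactive have numbers as strong as hits; positive values seem to mean higher polarization but the record does not say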
Target sequence (P41235 whole entry, looked up): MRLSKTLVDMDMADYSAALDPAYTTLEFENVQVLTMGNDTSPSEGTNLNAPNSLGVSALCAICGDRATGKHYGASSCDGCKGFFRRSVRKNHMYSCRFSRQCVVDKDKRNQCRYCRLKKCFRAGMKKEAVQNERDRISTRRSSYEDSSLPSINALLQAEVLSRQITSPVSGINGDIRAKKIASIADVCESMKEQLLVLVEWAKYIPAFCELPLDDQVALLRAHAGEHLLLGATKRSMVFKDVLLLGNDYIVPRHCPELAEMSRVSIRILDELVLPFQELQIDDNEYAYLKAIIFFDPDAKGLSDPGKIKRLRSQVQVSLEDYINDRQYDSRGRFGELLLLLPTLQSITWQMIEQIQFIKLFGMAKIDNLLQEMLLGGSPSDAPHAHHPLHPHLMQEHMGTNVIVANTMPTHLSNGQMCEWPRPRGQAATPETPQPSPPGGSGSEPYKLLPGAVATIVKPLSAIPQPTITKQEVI
ALR H2O2 inh = human ALR oxidase inhibition via reduced H2O2. inhibition, % (no concentration beside the values). AID 485317. purified ALR, DTT oxidation, H2O2 HRP-luminol luminescence. actives 3.8% (n = 290,000). P55789;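 active = mean and each replicate at 75% or more; inconclusive = only one of the two met; inactive = neither met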;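 note: stock transfer was 7.5 nL into about 7.5 µL; 0% = neutral wells and 100% = wells with inactivated enzyme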
Target sequence (P55789 whole entry, looked up): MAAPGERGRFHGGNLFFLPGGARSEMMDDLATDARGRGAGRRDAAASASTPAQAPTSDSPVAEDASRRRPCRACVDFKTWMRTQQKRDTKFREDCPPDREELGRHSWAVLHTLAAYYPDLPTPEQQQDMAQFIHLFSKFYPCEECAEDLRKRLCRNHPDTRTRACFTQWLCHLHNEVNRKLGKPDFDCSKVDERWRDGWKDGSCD
Calb FLC = C. albicans growth modulation with fluconazole. actives 0.57% (n = 300,000). AID 1979. growth inhibition, % (concentration not given with the values). C. albicans CaCi-2 (fluconazole-resistant clinical isolate) + fluconazole, Alamar Blue growth, 48 h;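 active = most replicates above 75%; inconclusive = exactly half above 75%; inactive = most below 75%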;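 note: all wells also contain fluconazole at 8 µg/ml as a sub-toxic cotreatment; 0% = median of DMSO wells and 100% = median of geldanamycin control wells; wells of about 8 µL received 7.5 nL stock; the first replicate is given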
Vif A3G = HIV-1 Vif–A3G interaction blockers – biochemical, TR-FRET, GST-Vif 1-94, biotin-A3G peptide, dose response retest, primary screen (AID 1117319) | inhibition, %, or IC50 in µM where a hit was titrated | TR-FRET GST-Vif / biotin-A3G peptide binding; higher % means a stronger effect; test concentration not given here; strong numbers were not always called active | actives 0.57% (n = 260,000);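 active = above the screen mean plus three standard deviations and confirmed in dose response; inconclusive = results disagree or hit not tested in dose response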;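 note: Vif residues 1-94 fused to GST binding biotinylated APOBEC3G peptide 110-148; 0% = full assay without inhibitor and 100% = GST in place of GST-Vif; retest series ran down from 100 µM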
LANA-H2B inh = blocks KSHV LANA binding to histone H2A/H2B | cell-free LANA-H2A/H2B peptide, fluorescence polarization | actives 0.6% (n = 320,000) | inhibition, % (no concentration beside the values); in the data active = inhibition mostly above about 10%, no sharp cut-off; inactive = mostly below about 6.7%;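 note: stock transfer was 7.5 nL into about 10 µL; 0% = median of vehicle wells and 100% = median of positive control wells; one replicate is shown; the record names a cut of 25% in any replicate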
Beta2AR agonist = activates human beta-2 adrenergic receptor causing internalization; Am2.2-beta2AR cells, FAP receptor internalization, flow cytometry; reference of the scale not given here; P07550; AID 504454; response, % (test concentration not listed); actives 0.43% (n = 340,000);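 active = response above a set limit, near 3 SD of response in nonfluorescent compounds, cut at about 42% in these data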;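 note: stock transfer was 100 nL into about 11 µL; a reference agonist was the positive control; negative values mostly stem from fluorescent compounds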
Target sequence (P07550 whole entry, looked up): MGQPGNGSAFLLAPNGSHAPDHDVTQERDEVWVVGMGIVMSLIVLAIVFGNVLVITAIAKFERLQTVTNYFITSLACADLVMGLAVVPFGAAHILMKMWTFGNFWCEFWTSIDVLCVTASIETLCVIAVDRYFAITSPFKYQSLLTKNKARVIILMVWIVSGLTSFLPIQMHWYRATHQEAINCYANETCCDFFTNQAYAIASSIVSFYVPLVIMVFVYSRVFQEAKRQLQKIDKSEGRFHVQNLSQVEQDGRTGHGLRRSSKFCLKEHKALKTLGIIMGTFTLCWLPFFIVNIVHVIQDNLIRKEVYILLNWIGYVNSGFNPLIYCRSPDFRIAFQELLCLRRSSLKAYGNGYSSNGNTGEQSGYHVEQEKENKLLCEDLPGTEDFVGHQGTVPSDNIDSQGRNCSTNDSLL
Active calls of the source: *; ? = inconclusive; / = not tested or not shown; & = joins results of further samples.

SMILES	RanGTP-Impb inh	HNF4A DNA FP	ALR H2O2 inh	Calb FLC	Vif A3G	LANA-H2B inh	Beta2AR agonist
Cc1nn2c(=O)cc(CSc3ccccc3NC(=O)c3ccccc3F)nc2s1	1.4	1.1	-3	4	/	12	7
Cc1ccc(NP(=O)(c2ccc(N(C)C)cc2NC(=O)c2cccs2)N2CCOCC2)cc1 (stereo not given)	-4.2	-1.4	-7	3	-8%	-0.3	-9
COc1ccc(/C(O)=C2\C(=O)C(=O)N(Cc3ccco3)C2c2cc(OC)ccc2OC)cc1 (stereo not given)	0.2	-0.6	-2	5	-10%&0%	-0.9	3
COc1cc(C2Nc3ccccc3NC3=C2C(=O)CC(C)(C)C3)cc(OC)c1OC(C)=O (stereo not given)	-4.7	-4.3	59	4	/	-3.4	5
Cc1cc(NC(=O)Cn2nc(-c3ccccc3F)ccc2=O)ccc1-n1cnnn1	0.4	1.2	-17	38	-1%	-0.4	9
COc1cccc(CN2CC(C(=O)NCc3cnn(C)c3)CCC2=O)c1 (stereo not given)	?	5.6	0	3	/	2.3	4
Cc1cccc(NNC(N)=S)c1C	1.7	-3.4	?	-30	3%	2.3	2
COc1ccc(OC)c(C2CC(=O)NC(SC)=C2C#N)c1 (stereo not given)	0.7	0.0	-6	6	4%	-5.5	2
COC(=O)c1c(N2C(=O)CC(Sc3ccccc3C(=O)O)C2=O)sc2c1CCCC2 (stereo not given)	1.5	1.9	67	5	/	4.2	3
CCN(CC)C(=O)[C@H]1C[C@H](CC(=O)NCCN2CCOCC2)C(=O)N2CCc3c([nH]c4cc(CCC(=O)N(C)C)ccc34)[C@]12C	/	3.5	/	/	8%	/	-3
Cc1ccc(CN(c2ccc(C(=O)NCc3ccccn3)cc2)S(C)(=O)=O)cc1	-3.7	-2.9	1	4	4%	-8.2	20
CC(C)c1nc2sc3c(SCC(=O)NCc4ccco4)ncnc3c2c2c1CCC2	-0.1	-23	-1	-2	3%	-4.9	2
O=C(OCc1nc2ccc(Cl)cc2n1CCO)c1ccccc1C(=O)c1ccccc1	-3.4	-1.3	-11	-11	-7%	6.3	1
COc1ccc(C2=NOC(Cn3nc(C(=O)NCc4cccc(C(F)(F)F)c4)cc3-c3ccccc3)C2)cc1 (stereo not given)	-9.1	-0.7	3	-5	/	-1.4	-6
O=C(CCc1ccc(S(=O)(=O)N2CCCCC2)cc1)c1nnc(-c2ccccc2)o1	0.6	-4.6	11	6	-17%	8.2	-7
Nc1ccc2c(C(F)(F)F)cc(=O)oc2c1	57*	-4.0	-10	-2	6%	3.5	-1
O=C1NC(=S)S/C1=C/c1ccc(OC(=O)c2ccco2)cc1	-0.2	44*	-3	7	/	3.7	-11
COc1ccc2c(c1)-c1ccccc1S(=O)(=O)N(C)C2	/	1.7	/	/	0%	/	3
COC(=O)Cc1[nH]nc2c1C(c1cc(OC)c(OC)c(OC)c1)C(C#N)=C(N)O2 (stereo not given)	0.0	-2.1	/	3	4%	-1.4	5
COc1cc(O)c2c(c1)COC2=O	0.4	-3.6	-25	2	-4%	-5.5	-7

The closing 2 entries of the part above are carried over, then new ones follow:
SMILES	RanGTP-Impb inh	HNF4A DNA FP	ALR H2O2 inh	Calb FLC	Vif A3G	LANA-H2B inh	Beta2AR agonist
COC(=O)Cc1[nH]nc2c1C(c1cc(OC)c(OC)c(OC)c1)C(C#N)=C(N)O2 (stereo not given)	0.0	-2.1	/	3	4%	-1.4	5
COc1cc(O)c2c(c1)COC2=O	0.4	-3.6	-25	2	-4%	-5.5	-7
O=C(Nc1ccc(N2CCOCC2)cc1N1CCOCC1)c1cccs1	-1.1	1.4	78*	-10	9%	6.1	-1
Cc1nc2cc(F)ccc2n1C1CCN(S(=O)(=O)c2ccccc2)CC1	0.9	2.3	0	6	0%	-4.2	5
Cn1c(CCn2ccccc2=O)nc2cc(NC(=O)COc3ccccc3)ccc21	0.2	1.6	-1	9	/	2.1	-11
O=C(Cc1cccc2ccccc12)NNC(=O)Nc1ccc(Cl)cc1	0.7	-2.3	-4	12	5%	-2.2	4
COc1ccc(N2CCN(C(CNC(C)=O)c3ccc4c(c3)OCO4)CC2)cc1 (stereo not given)	2.7	14	88*	9	-2%	3.6	3
CCOC(=O)N1CCN(C(=O)CN(C)S(=O)(=O)c2ccc3c(c2)c(=O)n(C)c(=O)n3C)CC1	-1.7	-1.1	-20	-10	9%	-1.1	-4
COCCCn1c(=S)[nH]c2sc3c(c2c1=O)CCCS3	?	0.1	99*	-6	11%	-3.4	0
CCOc1ccc2nc(CN3CCN(Cc4ccccc4OCC)C(CCO)C3)ccc2c1 (stereo not given)	-4.4	1.7	-11	-1	/	-5.8	10
CCCC(=O)NC(=S)Nc1ccc(N2CCOCC2)c(Cl)c1	4.0	1.5	5	7	15%	-1.5	-30
Cc1ccc(NC(=O)CCC(=O)N2CCC(C)CC2)c([N+](=O)[O-])c1	2.0	-3.1	4	6	/	-2.1	-9
COC(=O)CCCCC(=O)OC	/	3.7	13	/	/	-0.6	-4
CC1(C)Cc2c(sc3c2c(=N)n(Cc2ccco2)c(=O)n3Cc2ccc(F)cc2)CO1	/	-0.4	0	/	1%	-2.0	-5
CS(=O)(=O)N1CCc2cc(C(=O)Nc3ccc(Cl)cc3)ccc21	-4.4	1.2	-6	-2	23%	-1.8	0
CCOC(=O)N1CCC(N2CCN(S(=O)(=O)c3ccc(OC)cc3)CC2)CC1	8.3	-3.5	-1	-26	9%	2.8	-3
CC(=O)c1cccc(NC(=S)NC(=O)Cc2ccc(Cl)cc2)c1	1.5	-0.3	/	4	3%	-1.8	-8
CC(=O)N1CCC(N(CCN2CCOCC2)C(=O)Nc2ccc(Cl)c(Cl)c2)CC1	19*	-4.6	-6	-3	/	-3.2	-1
COc1ccc(/C(C)=N/NC2=NCCN2)cc1Cl	-4.0	0.4	-2	17	-4%	-0.3	2
COc1ccc(C(=O)NC(C)CCc2ccccc2)c(OC)c1 (stereo not given)	4.1	0.7	-8	-5	3%	-5.9	-3
CCN1C(=O)NC(c2ccccc2)(c2ccccc2)C1=O	5.3	-0.8	-10	-1	/	-1.0	4
Cc1nnc(SCC(=O)Nc2ccc(S(=O)(=O)Nc3ccc(Cl)nn3)cc2)s1	/	-11	14	-8	/	2.6	-9

Some of these compounds in order of their number in Beta2AR agonist, smallest number first.
canonical_smiles	RanGTP-Impb inh	HNF4A DNA FP	ALR H2O2 inh	Vif A3G	LANA-H2B inh	Beta2AR agonist
Cc1nnc(SCC(=O)Nc2ccc(S(=O)(=O)Nc3ccc(Cl)nn3)cc2)s1	/	-11	14	/	2.6	-9
COc1ccc(C2=NOC(Cn3nc(C(=O)NCc4cccc(C(F)(F)F)c4)cc3-c3ccccc3)C2)cc1 (stereo not given)	-9.1	-0.7	3	/	-1.4	-6
Cc1cccc(NNC(N)=S)c1C	1.7	-3.4	?	3%	2.3	2
COc1ccc(/C(O)=C2\C(=O)C(=O)N(Cc3ccco3)C2c2cc(OC)ccc2OC)cc1 (stereo not given)	0.2	-0.6	-2	-10%&0%	-0.9	3

Given with values under each structure: part of the list above
Second line of a record – RanGTP-Impb inh	HNF4A DNA FP	ALR H2O2 inh	Calb FLC	Vif A3G	LANA-H2B inh	Beta2AR agonist
> CCCC(=O)NC(=S)Nc1ccc(N2CCOCC2)c(Cl)c1
 : 4.0	1.5	5	7	15%	-1.5	-30
> Cc1ccc(NC(=O)CCC(=O)N2CCC(C)CC2)c([N+](=O)[O-])c1
 : 2.0	-3.1	4	6	/	-2.1	-9

The results go on:
SMILES	RanGTP-Impb inh	HNF4A DNA FP	ALR H2O2 inh	Calb FLC	Vif A3G	LANA-H2B inh	Beta2AR agonist
Cc1ccc(C2=NN(CCC(=O)NC3CCCC3)C(=O)CC2)cc1	2.0	1.6	-32	8	/	8.7	-3
CCN(CC(=O)Nc1cccc(C#N)c1)CC(=O)Nc1cccc(OC)c1	0.9	-0.3	0	-7	/	-0.5	4
COc1cc(/C=C2\SC(=Nc3ccc(Cl)c(C(=O)O)c3)NC2=O)c(Br)c(Br)c1O	-63	76*	98*	-2	/	-34	3
CC(=O)c1ccc(NC(=O)C(C)Sc2ccccn2)cc1 (stereo not given)	-2.4	-2.2	/	-11	2%	3.0	-1
O=C(CSc1nnc(Nc2ccccc2F)s1)NC1CCCC1	/	-4.3	-1	/	-12%	-0.3	-5
O=C(Nc1ccc2c(c1)oc1ccccc12)c1ccc(Br)o1	3.7	1.4	-3	?	-8%	0.6	13
Nc1ccc(N=Nc2ccc(N)cc2)cc1	0.3	21	98*	-11	7%	-11	6
CC(Sc1nnc(C2CC2)n1C)C(=O)Nc1ccc(N2CCOCC2)cc1 (stereo not given)	/	-2.5	/	/	43%	/	0
COC(=O)c1ccc(/C=C/c2c(-c3ccc(OC)cc3)oc3ccc(N4CCOCC4)cc23)cc1	-0.4	-5.1	-4	-2	/	1.0	4
COc1cccc(NC(=O)CSc2nc3c([nH]c4ccccc43)c(=O)n2C)c1	3.1	-4.0	0	3	21%	6.3	-3
O=C(Cc1ccccc1[N+](=O)[O-])OCc1cccc([N+](=O)[O-])c1	11	/	/	-1	/	-8.1	/
Cc1ccc(-n2nc(C)c3c2OC(N)=C(C#N)C3c2ccco2)cc1 (stereo not given)	-2.5	0.7	11	-6	?	1.3	-1
COCCCNC(=S)NNC(=O)c1cc(-c2ccncc2)nc2ccccc12	0.4	3.0	43	-26	/	4.5	-2
CCOc1ccc(CCNC(=O)c2oc3c(c2C)-c2[nH]ncc2CC3)cc1OCC	2.6	5.4	-26	-3	?	5.5	-11
O=C(COC(=O)CN1C(=O)C2CCCCC2C1=O)Nc1ccc(S(=O)(=O)N2CCOCC2)cc1 (stereo not given)	-1.1	1.9	-1	-1	6%	-0.3	1
CSc1ccc(CN(C)C(=O)c2cc(Cl)c3c(c2)OCCO3)cc1	-2.7	1.5	-6	-5	/	-4.8	-1
N#CC(C#N)=C1C=C2C=C(N3CCCCCC3)CCC2CC1 (stereo not given)	45*	-94	/	41	8%	/	/
CC(C)n1c(NCCO)nc2ccccc21	6.1	0.4	20	-13	5%	-1.4	-6
CC(=O)Nc1cccc(NC(=O)COC(=O)C2CC3CCCC(C2)C3=O)c1 (stereo not given)	6.7	2.4	-8	1	-3%	-1.8	2
CCN(CC)S(=O)(=O)c1ccc(Cl)c(C(=O)OC)c1	0.8	-4.9	-3	-3	?	-4.1	8
O=C(NC1CCCC1)C1CCC(CNS(=O)(=O)c2cccs2)CC1 (stereo not given)	0.9	3.5	-3	-7	-23%	2.0	-5
O=C(NC(=S)Nc1ccc2[nH]c(=O)[nH]c2c1)c1cc(Br)ccc1Cl	4.0	-0.7	-3	-2	/	-0.7	-3
COc1ccc(Cl)cc1C(=O)Nc1ccccc1N1CCCCC1	0.6	0.8	-24	1	4%	5.6	-1
CC(=O)NC(=S)c1c(N)n(Cc2ccccc2)c(=O)n(C)c1=O	2.7	/	12	9	4%	-0.4	/
COc1ccc(C(=O)NCc2cccnc2)cc1Br	0.9	0.9	-4	0	8%	-3.6	-5
CC(C)Oc1ccc(CCN=C(N)N=C(N)N)cc1Cl	4.9	-0.5	-5	-10	/	0.3	3
N#CC(C#N)=NNc1ccc([N+](=O)[O-])cc1	-10	11	53	-7	7%	2.2	12
O=c1[nH]c(NC2CCCCC2)nnc1Cc1ccccc1	-5.1	5.2	/	-3	5%	3.5	-5
CC1CCCC(NC(=O)COC(=O)c2ccc(Cl)nc2)C1C (stereo not given)	/	0.2	/	/	4%	1.1	3
COC(=O)c1sccc1NC(=O)c1ccc(Cl)cc1	1.9	4.2	2	3	-39%	-2.2	7
COC(=O)CSc1nc2cc(OC)ccc2cc1C#N	3.2	-1.3	/	20	-44%	0.0	0
